Screening results as filed in PubChem.
HTT prom inh: HTT promoter inhibition. HEK293 HTT promoter firefly luciferase reporter (activity 0% = vehicle and -100% = no light), 24 h. Potency, µM (titrated, usually from 57.5 µM), for inactives: at the highest dose activity change, negative = inhibition, usual class: inhibitors. 48,000 tested, 0.93% active; active = well fitted inhibition curve with a large enough effect; inconclusive = small, poorly fitted or top-dose-only effect; inactive = no such curve, though single readings can be large or run the other way; note: nearly all actives have a fitted effect of over 50% in size
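HEK293 luciferase promoter-reporter cells (2,500/well) plated 24 h, then compounds added at up to 57.5 uM final for 24 h at 37 °C. Firefly luminescence by Dual-Glo, normalized to vehicle (0%) and zero RLU (-100%).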
PMP22 txn: PMP22 gene transcription modulation. Potency, µM (titrated, usually from 57.5 µM), for inactives: at the highest dose activity change, negative = inhibition, usual class: inhibitors. 43,000 tested, 2% active. S16 Pmp22-F2sN Schwann cells (luciferase reporters placed in the Pmp22 gene), FLuc/NLuc coincidence luminescence, 24 h; active = clear falling dose curves in both reporters; inconclusive = both reporters move, but less clearly or upward; inactive = either reporter flat; the % is the NLuc reporter signal; note: % is set by controls: 0 for no effect and ±100 for the full control effect; some results filed as inactive show a strong effect at the top dose
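Luminescent read-out of sequential FLuc and NLuc signals from a reporter embedded in the Pmp22 3' UTR of S16 Schwann cells, taken after 24 h compound exposure at 37C; compounds reducing both signals score as inhibitors of expression.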
Starred values were filed as active, the others as inactive; ? = inconclusive; / = not tested or not shown; & = joins results of further samples; ! = not active in a repeat; [ ] = dose if it differs, or a comment. Potency is the fitted concentration of half-maximal effect.

#	compound	HTT prom inh	PMP22 txn
1	COc1ccc(CNC(=O)CN2C(=O)COc3ccc(S(=O)(=O)NC4CCCC4)cc32)cc1	-8%	1%
2	COc1ccc(S(=O)(=O)NCc2cccn2Cc2cccc(C)c2)cc1	0%	-6%
3	Cc1ccc(NC(=O)Nc2cc3c(cc2N2CCCCC2)n(C)c(=O)n3C)cc1Cl	?	?
4	CCOc1ccc(CCNC(=O)CN2C(=O)c3cccnc3Oc3ccc(Cl)cc32)cc1	-6%	-25%
5	CN1CCN(c2ncc3c(n2)CCN(Cc2ccc(Br)s2)C3)CC1	-17%	?
6	O=C(NCCc1ccccc1)c1ccc2c(c1)N(Cc1ccc(F)cc1)C(=O)c1ccccc1S2(=O)=O	-15%	-29%
7	O=C(c1cccs1)N1CCCc2cc(NS(=O)(=O)c3ccc(Br)cc3)ccc21	?	?
8	COc1ccccc1C(=O)N1CCC(c2noc(-c3ccc(S(=O)(=O)N4CCCC4)cc3)n2)CC1	25µM*	?
9	COc1ccc(-c2cc(-c3ccc(F)cc3)nc3c2COc2ccc(F)cc2-3)cc1	-6%	1%
10	COc1ccc(CCNC(=O)CCn2c(=O)c3cccn3c3ccc(F)cc32)cc1OC	0%	-24%
11	Cc1ccc(NC(=O)n2ncc3c(C)cccc32)c(C)c1	56%[activator]	-16%
12	CC1CCc2c(sc3nnn(CC(=O)Nc4ccc(Cl)cc4)c(=O)c23)C1 (stereo unspecified)	-23%	-6%
13	COc1ccc2nc(N(Cc3cccnc3)C(=O)Cc3ccccc3)sc2c1	-24%	1%
14	CCc1ccccc1NC(=O)c1ccc(CN2C(=O)CCn3nc(C)cc32)cc1	6%	-19%
15	Cc1cccc(NC(=O)C2CCN(S(=O)(=O)c3c(C)noc3/C=C/c3ccco3)CC2)c1C	?	-10%
16	CCC(Cc1ccccc1)NC(=O)Cn1nc(C)n2c(cc3occc32)c1=O (stereo unspecified)	-10%	-14%
17	CC1(C)CC(=O)c2cc(-c3nc(-c4ccccc4)cs3)c(=O)[nH]c2C1	1%	-13%
18	COc1ccc(OC)c(NC(=O)CN2C(=O)COc3ccc(S(=O)(=O)NC4CCCC4)cc32)c1	-21%	1%
19	CC(=O)c1c(C)oc2c(Br)cc(NS(=O)(=O)c3ccc(Br)cc3)cc12	-7%	?
20	CCOc1cc(S(=O)(=O)NCCc2c(C)[nH]c3ccc(C)cc23)ccc1Br	-24%	?
21	COc1ccc(NC(=O)CCn2cccn2)cc1OC	-11%	3%
22	CCc1ccc(NS(=O)(=O)c2ccc(C(=O)N(C)C)s2)cc1	?	68%
23	COc1ccc(Cl)cc1NC(=O)CCCn1c(=O)c2cccn2c2cccnc21	-15%	?
24	Oc1c(C(c2ccc(Br)cc2)N2CCOCC2)sc2nc(-c3ccco3)nn12 (stereo unspecified)	-16%	10%
25	CCc1ccc(S(=O)(=O)c2cn(C)c3cc(N4CCC(C)CC4)c(F)cc3c2=O)cc1	-14%	0%
26	CN(C(=O)Cn1ncc2c1-c1ccccc1OC2)c1ccc(Br)cc1	-25%	?
27	CC1=C(C(=O)OC2CCCCCC2)C(c2c(Cl)cccc2Cl)CC(=O)N1 (stereo unspecified)	?	-13%
28	CCOC(=O)c1cc(-c2ccccc2)n(CC(=O)NC(C)c2ccccc2)c1C (stereo unspecified)	-7%	?
29	COc1ccc(N(CC(=O)N2CCN(c3ccc(F)cc3)CC2)S(=O)(=O)c2c(C)noc2C)cc1	-27%	?
30	Cc1ccc2oc(=O)c(-c3nc4ccc(C)cc4[nH]3)cc2c1	23%	-10%
31	Clc1cccc(N2CCN(c3nc4ccccc4c4nc(-c5ccccc5)nn34)CC2)c1	-8%	0%
32	Cc1c(C)c2c(c(C)c1O)CCC(C)(COc1ccc(CC3SC(=O)NC3=O)cc1)O2 (stereo unspecified)	-24%&-12%	/
33	CCc1ccc(C(c2ccccc2)c2c[nH]c3ccc(C)cc23)s1 (stereo unspecified)	12%	-6%
34	Cc1ccccc1C(=O)c1ccc(Nc2ccc(Br)cc2N)cc1Cl	-9%	/
35	O=C(Nc1ccccc1)C1CCN(S(=O)(=O)c2ccc3[nH]c4c(c3c2)CCCCC4)CC1	?	7%
36	CCOC(=O)Cn1c(=O)c2c(nc(N3CCOCC3)n2Cc2ccccc2)n(C)c1=O	3%	-83%
37	CCOc1ccc(NC(=O)CSc2nnc3scc(-c4ccc(Cl)cc4)n23)cc1	-8%	?
38	CC(C)Oc1ccc(CNS(=O)(=O)c2ccc(-c3cc(C(F)(F)F)on3)s2)cc1	6%	-5%
39	CCc1ccc(NC(=O)c2ccc(F)c(S(=O)(=O)NC3CCCCCC3)c2)cc1	?	?
40	O=C(COc1ccccc1)Nc1nnc(S(=O)(=O)N2CCCCCC2)s1	-23%	?
41	COc1ccc(-n2nc(C(=O)N3CCN(c4ccccc4OC)CC3)c3c4ccccc4n(C)c3c2=O)cc1	-9%	-5%
42	Cc1ccc(-n2nc3c(N4CCC(C(=O)N5CCCCC5)CC4)nnc(C)c3c2C)cc1	-23%	?
43	COc1ccc(C(=O)N/C(=C\c2cn(S(=O)(=O)N(C)C)c3ccccc23)C(=O)NCCCn2ccnc2)cc1	-3%	?
44	CCN(CC)c1ccc(NC(=O)CN2CCN(S(=O)(=O)c3ccc(C(C)C)cc3)CC2)cc1	?	?
45	CCc1ccc(-n2c(=O)c3c(C)c(C(=O)N(C)C)sc3n(Cc3cccc(C)c3)c2=O)cc1	1%	-15%
46	CC(C)Cn1c(=O)c2ccccc2n2c(CCC(=O)NCc3ccc(Cl)cc3)nnc12	-8%	?
47	CCC(Oc1ccccc1)C(=O)Nc1ccc(OCc2cc(=O)n3ccc(C)cc3n2)cc1 (stereo unspecified)	-5%	4%
48	CCc1c(C)sc2c1CCN(Cc1ccc(C#N)cc1)C2c1ccccc1 (stereo unspecified)	-19%	?
49	Fc1ccc(C(NCCc2ccc(Cl)cc2)c2nnc(-c3ccccc3)o2)c(Cl)c1 (stereo unspecified)	?	-6%
50	Cc1ccc(Cl)c(OCC(O)CNC(C)(C)C)c1 (stereo unspecified)	-8%	/
51	N#Cc1c(C(F)(F)F)cc(-c2cccs2)nc1SCc1ccc(F)cc1	-3%	-14%
52	CCCCc1nn2c(=O)cc(COC(=O)c3ccc(NC(=O)c4cccc(OC)c4)cc3)nc2s1	-23%	-9%
53	CCCCOc1ccc(NC(=O)CSc2ccc(C(=O)O)cn2)cc1	-2%	34%
54	CCCCOc1ccc(C(=O)NCCc2sc3nc(-c4ccc(OC)cc4)nn3c2C)cc1	8%	-14%
55	CCN(CC)Cc1c(NC(=O)c2ccc(OC)cc2)sc2c1CCCC2	-1%	-86%
56	COc1ccc(-c2nc3ccccc3o2)cc1NC(=O)c1ccc(-c2cccc(Cl)c2C)o1	5%	-8%
57	Cc1cc(O)c(C(c2ccc(F)cc2)N2CCN(c3ccccc3)CC2)c(=O)n1Cc1ccco1 (stereo unspecified)	-1%	?
58	COc1cccc(C(=O)Nc2cccc(-c3cn4ccsc4n3)c2)c1OC	10%	5%
59	CCN(CC)c1ccc(C(=O)NCc2nc3cccnc3n2Cc2ccc(C)cc2)cc1	-2%	-17%
60	CC(C)CC(=O)Nc1ccc(C(=O)OCc2cc(=O)n3nc(C(C)C)sc3n2)cc1	-31%	8%

Whole records, quoted from the list. Order of screens: HTT prom inh | PMP22 txn
`COc1ccc(-c2nc3ccccc3o2)cc1NC(=O)c1ccc(-c2cccc(Cl)c2C)o1` in the list: 5% | -8%
`Cc1cc(O)c(C(c2ccc(F)cc2)N2CCN(c3ccccc3)CC2)c(=O)n1Cc1ccco1` (stereo unspecified) in the list: -1% | ?
`CCN(CC)c1ccc(C(=O)NCc2nc3cccnc3n2Cc2ccc(C)cc2)cc1` in the list: -2% | -17%

Part of the list above in order of molecular weight, smallest number first.
#	compound	HTT prom inh	PMP22 txn
50	Cc1ccc(Cl)c(OCC(O)CNC(C)(C)C)c1 (stereo unspecified)	-8%	/
55	CCN(CC)Cc1c(NC(=O)c2ccc(OC)cc2)sc2c1CCCC2	-1%	-86%
60	CC(C)CC(=O)Nc1ccc(C(=O)OCc2cc(=O)n3nc(C(C)C)sc3n2)cc1	-31%	8%
57	Cc1cc(O)c(C(c2ccc(F)cc2)N2CCN(c3ccccc3)CC2)c(=O)n1Cc1ccco1 (stereo unspecified)	-1%	?

(continued)
#	compound	HTT prom inh	PMP22 txn
61	COc1ccc(N(CC(=O)N2CCc3ccccc3C2)S(=O)(=O)c2ccccc2)cc1	-18%[11.5 µM]	-22%
62	Cc1cccc(Oc2nc3ccccn3c(=O)c2/C=C(\C#N)c2nc3ccccc3s2)c1C	-2%	?
63	COc1ccc(S(=O)(=O)N(CC(=O)NCc2ccc(C)cc2)c2ccc(Cl)cc2)cc1	-21%	?
64	COc1cc(C(=O)NCC(c2cccnc2)N2CCc3ccccc32)cc(OC)c1OC (stereo unspecified)	-20%	1%
65	Cc1ccc(N2CC(NC(=O)c3ccco3)CC2=O)cc1C (stereo unspecified)	-26%	27%
66	CCc1ccc(CNC(=O)c2cc3ccccn3n2)cc1	11%	-10%
67	COc1ccc(CCNC(=O)C2CCN(c3ncnc4c3nc3n4CCCCC3)CC2)c(OC)c1	-16%	-1%
68	Cc1cc(C)n(CCc2nc3c4ccccc4nc(SCc4ccc(F)cc4)n3n2)n1	-17%	2%
69	O=C(CSCn1nnc2c(=O)[nH]c(Cc3ccc(F)cc3)nc21)Nc1cccc(C(F)(F)F)c1	-14%	3%
70	COc1ccccc1NC(=O)CSc1oc(-c2ccc(F)cc2)nc1S(=O)(=O)c1ccc(Br)cc1	-11%	?
71	COCCOC(=O)c1c(C)oc2c1cc(NS(=O)(=O)c1ccc(Cl)c(C)c1)c1ccccc12	?	?
72	CCOc1ccc(S(=O)(=O)NCCc2csc(-c3ccc(Cl)cc3)n2)cc1	?	?
73	Cc1ccc(CNC(=O)c2c(O)nc3c(C)cccn3c2=O)cc1	-18%	25%
74	COc1ccccc1NC(=O)c1nnn(-c2ccc(F)cc2)c1C	32%[activator]	-4%
75	O=C(CSc1nc2ccccc2nc1Cc1ccccc1)Nc1ccccc1C(F)(F)F	-15%	?
76	CCOCCCNC(=O)c1cc2c(=O)n(C)c3ccccc3c2n1C	-7%	?
77	O=C1CCCC2=C1C(c1[nH]ncc1Cl)N=C(Nc1nc3ccccc3o1)N2 (stereo unspecified)	3%	/
78	COC(=O)Nc1ccc(-c2nc(N3CCOCC3)c3cnn(C4CCN(C(=O)OC)CC4)c3n2)cc1	-31%	/
79	CN1C(=O)c2ccccc2Sc2ccc(NC(=O)Nc3ccccc3F)cc21	-2%	?
80	CC1=C(c2ccc(C)c(C)c2)S(=O)(=O)N=C1N1CCC(C(=O)NC(C)c2ccccc2)CC1 (stereo unspecified)	?	-18%
81	COc1ccc(-c2cc3nc(C4CCN(C(=O)OC(C)(C)C)CC4)c(C(=O)Nc4cc(C)cc(C)c4)cn3n2)cc1	-18%	3%
82	O=C(/C=C/c1ccco1)Nc1ccc(F)cc1	94%[activator]	?
83	COc1ccc2c(c1)c1c(c(=O)n(Cc3ccccc3)c(=O)n1Cc1ccccc1Cl)n2C	-15%	6%
84	COc1ccc(NC(=O)CSc2ccc3nc(-c4ccccc4)cn3n2)cc1OC	11%	0%
85	N#Cc1ccccc1Cn1c(SCC(=O)NCc2ccccc2)nc2ccccc21	-12%	?
86	O=C(O)c1cccc(-c2noc(-c3ccccc3F)n2)c1	7.9µM*!	/
87	CCn1c(C(=O)N2CCCC(C(=O)N3CCN(c4cc(C)ccc4C)CC3)C2)cc2sccc21 (stereo unspecified)	?	?
88	Cc1ccc(CCNC(=O)CCS(=O)(=O)c2ccc3c(c2)oc(=O)n3C)cc1	-5%[11.5 µM]	3%
89	Cn1c2c(c(=O)n(C)c1=O)C(c1ccccc1C(F)(F)F)CC(=O)N2 (stereo unspecified)	-14%	0%
90	CCn1c(SC)nc2c([nH]c3ccccc32)c1=O	-14%	-38%
91	COc1ccccc1Nc1nn2c(=O)c3ccc(C(=O)NCCc4ccccc4)cc3nc2s1	7.1µM*	5.6µM*
92	CCCc1cc(=O)[nH]c(Nc2ccc(OCC)cc2)n1	?	-15%
93	CCOc1cccc(C2c3[nH]c4ccccc4c3CCN2C(=O)CSCc2ccc(F)cc2)c1 (stereo unspecified)	?	-7%
94	CCOC(=O)N1CCN(c2ncc3c(n2)CC(c2ccc(OC)c(OC)c2)CC3=O)CC1 (stereo unspecified)	?	?
95	COCCCNC(=O)N1CCN(c2nnc(C)c3c(C)n(-c4ccc(Cl)cc4)nc23)CC1	-3%	?
96	Cc1cc(Cl)ccc1OCC(=O)N(Cc1ccc(N(C)C)cc1)CC1CCCO1 (stereo unspecified)	?	?
97	CC(=O)N1c2ccccc2C(=O)C1N1CCN(c2cc(Cl)ccc2C)CC1 (stereo unspecified)	?	2%
98	CCC1CCCCN1S(=O)(=O)c1ccc(C(=O)Nc2sc3c(c2C(N)=O)CCC3)cc1 (stereo unspecified)	-25%	?
99	CCOC(=O)CSc1nc(-c2ccc(F)cc2)cc(C(F)(F)F)c1C#N	-32%	-15%
100	COCCN1C(=O)c2[nH]nc(-c3ccccc3O)c2C1c1ccc(OCc2ccccc2)c(OC)c1 (stereo unspecified)	?	?
